From PubChem
MLL AF4-AF9 inh – MLL-AF4/AF9 protein interaction inhibition; AlphaScreen, biotin-AF4 peptide binding to FLAG-AF9; inhibition, % at 10 µM; 350,000 compounds, 0.47% hits;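 active means every replicate reaching a set inhibition limit, whatever the replicate mean, cut at about 25% in these data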;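 further: 0% = plate neutral control median and 100% = total signal loss; the record names both 10 and 1 µM as test concentration; the first replicate is given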
FGF22 binding – FGF22 (human) thermal shift binding | Q9HCT0 | recombinant FGF22 thermal shift, SYPRO orange fluorescence; percent of sucrose octasulfate shift, DMSO zero | calls only at 9.99 µM | 340,000 compounds, 1.5% hits | AID 651658;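 active means melting point raised past a set limit in the mean and every replicate; three in four hits are not shown here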
Target sequence (Q9HCT0 whole entry, looked up): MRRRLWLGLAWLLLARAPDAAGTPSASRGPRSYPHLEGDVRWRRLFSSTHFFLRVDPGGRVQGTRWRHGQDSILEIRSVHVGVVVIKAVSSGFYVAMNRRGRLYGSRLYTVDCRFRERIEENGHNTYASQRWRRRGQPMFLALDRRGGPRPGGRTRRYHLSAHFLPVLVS
rRNA inh HTS – inhibitors of bacterial rRNA selective over humanized ribosomes; 350,000 compounds, 1.6% hits; GFP signal change (wild-type ribosome), % (test concentration not listed); E. coli WT GFP vs humanized-ribosome RFP mutants, fluorescence, 24 h; active compounds read low; DMSO median 0, no signal -100;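 active means significant combined selectivity score with lowered wild-type GFP, culture density cut under 30%, mutant RFP and density less affected; inactive means any of these conditions unmet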; further: one replicate is shown; some compounds called inactive have numbers as strong as hits
rRNA inh HTS OD600 – second read-out of rRNA inh HTS, no call of its own (marks repeat the call); OD600 change, %; measured here: OD600 growth;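 optical density of the mix in the first replicate; 0 = DMSO median and -100 = no signal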
rRNA inh HTS RFP – recorded beside rRNA inh HTS, whose call it bears; RFP signal change, %; measured here: RFP humanized mutant strains;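 first replicate; 0 = DMSO median and -100 = no signal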
Active calls of the source: *; i = inactive. An excerpt; rates above refer to the full screens.

MLL AF4-AF9 inh,FGF22 binding,rRNA inh HTS,rRNA inh HTS OD600,rRNA inh HTS RFP,Molecule
4.9,i,0,6,-1.4,C[C@@H]1CN([C@@H](C)CO)S(=O)(=O)c2ccc(C#Cc3ccccc3)cc2O[C@@H]1CN(C)C(=O)Nc1ccc2c(c1)OCO2
2.7,i,2,2,2.4,COc1ccc(C2=Nc3ccccc3N(C(=O)Cc3cc(OC)cc(OC)c3)C2C(=O)NC(C)C)cc1 (stereo not given)
3.7,i,4,-10,-1.2,CC(Nc1cccc([N+](=O)[O-])c1)C(=O)Nc1ccc(S(=O)(=O)N2CCCC2)cc1 (stereo not given)
-0.8,i,3,20,5.3,O=C(O)c1cc2ccccc2[nH]1
-1.3,i,-4,-3,2.2,COc1ccc(S(=O)(=O)N(C)C[C@H]2OCCCC[C@H](C)Oc3ccc(NC(=O)c4ccncc4)cc3C(=O)N([C@@H](C)CO)C[C@H]2C)cc1
-6.2,i,2,12,-3.3,COc1ccc(C#Cc2cnc3c(c2)C(=O)N([C@@H](C)CO)C[C@H](C)[C@@H](CN(C)C(C)=O)O3)cc1
0.1,i,0,2,0.7,CO[C@@H]1CN(C)C(=O)c2ccc(NC(C)=O)cc2OC[C@@H](C)N(C(=O)c2ccc(F)cc2)C[C@@H]1C
6.5,i,-54,-78,-16,CCCN(CC1CC1)C(=S)NC(=O)c1cc(Br)ccc1Cl
5.1,i,-8,-10,-3.7,CN(C)CC#Cc1ccc([C@@H]2[C@@H](CO)N3CCCCN(S(=O)(=O)c4ccccc4F)C[C@@H]23)cc1
-0.9,i,-2,-5,1.8,CCC(=O)N1CC2(C1)[C@H](c1ccc(-c3ccccc3)cc1)[C@H](CO)N2S(C)(=O)=O
-7.7,i,-1,0,-7.9,COc1ccc(CNC(=O)c2cc(S(=O)(=O)N3CCCCC3)ccc2N2CCOCC2)cc1OC
4.9,i,-17,-10,29,CO[C@H]1CN(C)C(=O)c2cc(NC(=O)c3nc4ccccc4s3)ccc2OC[C@@H](C)N(Cc2ccncc2)C[C@H]1C

Pulled one by one from above, 2 records:
MLL AF4-AF9 inh,FGF22 binding,rRNA inh HTS,rRNA inh HTS OD600,rRNA inh HTS RFP,Molecule
3.7,i,4,-10,-1.2,CC(Nc1cccc([N+](=O)[O-])c1)C(=O)Nc1ccc(S(=O)(=O)N2CCCC2)cc1 (stereo not given)
-7.7,i,-1,0,-7.9,COc1ccc(CNC(=O)c2cc(S(=O)(=O)N3CCCCC3)ccc2N2CCOCC2)cc1OC

Part of the list above in order of heavy-atom count, ascending:
MLL AF4-AF9 inh,FGF22 binding,rRNA inh HTS,rRNA inh HTS OD600,rRNA inh HTS RFP,Molecule
-0.8,i,3,20,5.3,O=C(O)c1cc2ccccc2[nH]1
6.5,i,-54,-78,-16,CCCN(CC1CC1)C(=S)NC(=O)c1cc(Br)ccc1Cl
5.1,i,-8,-10,-3.7,CN(C)CC#Cc1ccc([C@@H]2[C@@H](CO)N3CCCCN(S(=O)(=O)c4ccccc4F)C[C@@H]23)cc1
0.1,i,0,2,0.7,CO[C@@H]1CN(C)C(=O)c2ccc(NC(C)=O)cc2OC[C@@H](C)N(C(=O)c2ccc(F)cc2)C[C@@H]1C
4.9,i,-17,-10,29,CO[C@H]1CN(C)C(=O)c2cc(NC(=O)c3nc4ccccc4s3)ccc2OC[C@@H](C)N(Cc2ccncc2)C[C@H]1C
-1.3,i,-4,-3,2.2,COc1ccc(S(=O)(=O)N(C)C[C@H]2OCCCC[C@H](C)Oc3ccc(NC(=O)c4ccncc4)cc3C(=O)N([C@@H](C)CO)C[C@H]2C)cc1
